Screening results from PubChem.
Ab BasE inh: BasE siderophore enzyme inhibitors, primary screen, biochemical, Acinetobacter baumannii ATCC 17978, fluorescence polarization; inhibition, % (test concentration not listed); purified BasE, fluorescence polarization binding displacement; AID 485350, 2010; 84,000 tested, 0.1% active;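 active = both replicates above 25% with normal brightness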;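 also: 0% = negative plate control signal and 100% = positive plate control signal; stock transfer was 100 nL into about 30 µL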
LANA-nucl inh: inhibitors of KSHV LANA-nucleosome binding, primary screen, biochemical, fluorescence polarization, FITC-LANA1-23, chicken nucleosomes. FITC-LANA1-23 / chicken nucleosome fluorescence polarization; active compounds read low. z-score (concentration not given with the values). 51,000 tested, 0.3% active;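 active = both repeat wells score below -2 in polarization z-score versus plate sample wells, excluding overly bright wells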;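 also: 100 nL library stock added to about 30 µL; numbers are from one replicate; some results filed as inactive read as strong as hits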
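Assay system: FITC-LANA peptide and chicken nucleosomes; input: 240 nM purified chicken nucleosomes (480 nM peptide binding sites), final; also added: 50 nM FITC-LANA1-23 probe; medium: TEN-BT buffer, pH 7.5; doses: pin-transferred compound, 100 nL; times: 10–45 min, room temperature; technique: fluorescence polarization; replication: duplicates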
* hit, by the source's call; . = not tested or not shown; & = joins results of further samples.

The line under a structure holds: Ab BasE inh	LANA-nucl inh
1	O=C(NCCOc1ccccc1F)C1CC(=O)N(Cc2ccccc2)C1 (configuration not stated)
  -0.7	.
2	O=C(Cn1c(=O)c2c(ncn2C2CCCC2)n(Cc2ccccc2)c1=O)NCC1CCCO1 (configuration not stated)
  0.9	.
3	CC(C)NC(=O)C1CC(c2ccc(Cl)cc2)=NO1 (configuration not stated)
  -0.9	0.747
4	O=C(Cn1c(=O)oc2ccccc21)c1ccc(Cl)cc1
  -3.9	0.0345
5	CSc1nnc(-c2ccccc2)n1/N=C/c1cc(O)ccc1Cl
  2.9	-0.401
6	COc1cccc(CNc2cc(C)c3cccc(OC)c3n2)c1OC
  -4.6	-0.32
7	O=C(CSc1nccc(-c2cccs2)n1)N1CCOCC1
  2.0	.
8	O=C(CSc1ccccn1)Nc1cc(C(=O)O)cc(C(=O)O)c1
  -4.2	.
9	Cc1ccn(CCC(=O)Nc2ccc(-c3ccno3)cc2)n1
  1.7	-1.09
10	N#CCc1ccc(NC(=O)Nc2cccc3ccccc23)cc1
  -0.6	0.226
11	O=C(c1cccc(-n2cnnn2)c1)N(CCc1ccccc1)Cc1cccs1
  0.6	.
12	CC1=NN(c2ccccc2)C(=O)/C1=C/c1ccc(OC(=O)c2ccco2)c(Cl)c1
  1.8	-0.289
13	CC(=O)N/N=c1\oc2ccccc2cc1C(=O)Nc1ccccc1
  4.2	-0.369
14	Cc1ccc(F)cc1NC(=O)Nc1cc(C(C)(C)C)nn1C
  -1.1	0.583
15	COc1ccc2c(c1)c1c(c(=O)n(Cc3ccccc3)c(=O)n1CC(N)=O)n2C
  -0.9	0.0895
16	O=C(CSc1ccc(Cl)cc1)NCCN1CCOCC1
  2.5	-0.366
17	CO[C@H]1C[C@H](O[C@H]2[C@H](C)[C@@H](OC3O[C@H](C)C[C@H](N(C)C)[C@H]3OC(C)=O)[C@@H](C)C[C@]3(CO3)C(=O)[C@H](C)[C@@H](OC(C)=O)[C@@H](C)[C@@H](C)OC(=O)[C@@H]2C)O[C@@H](C)[C@@H]1OC(C)=O (some centres not stated)
  -1.4	-0.152&-0.229
18	O=c1c(Cl)c(N2CCOCC2)cnn1-c1cnc2ccccc2n1
  0.6	-0.115
19	Cc1ccc(NC(=O)CN2C(=O)C(C)SC(C)C2=O)cc1 (configuration not stated)
  1.0	-0.347
20	Nn1c(SCCCSc2nnc(-c3ccco3)n2N)nnc1-c1ccco1
  -1.2	.
21	COC(=O)CN(c1ccc(OC)cc1)S(=O)(=O)c1c(C)noc1C
  1.9	-1.35
22	CCOC(=O)Cc1cc(=O)[nH]c(/N=C(\N)Nc2cccc(Cl)c2)n1
  -1.5	0.131
23	Cc1ccc(NC(=O)CSC2CC(=O)NC2=O)cc1 (configuration not stated)
  -4.9	1.51
24	O=C1CN(CC(=O)Nc2ccc(SC(F)F)cc2)CCN1
  0.1	.
25	Cc1csc(/N=C/N(C)C)c1C#N
  4.0	-0.0765
26	CCOc1ccc(CNC(=O)c2cc(C)[nH]n2)cc1OC
  -0.2	-1.29
27	CSc1ncccc1C(=O)NCCOc1ccccc1
  0.6	.
28	Cc1nnc(SCCC(=O)Nc2ccc(Cl)cc2)o1
  4.8	-0.519
29	CCC(c1nnc(SCC(=O)Nc2ccc(C(=O)Nc3ccccc3OC)cc2)o1)N(C)C (configuration not stated)
  -0.7	.
30	O=C(COC(=O)c1ccco1)c1ccc(-n2nncc2-c2ccco2)cc1
  0.6	.
31	COc1ccc(N2C(=O)/C(=C\c3ccco3)N=C2SCC(=O)N2CCc3ccccc32)cc1Cl
  -1.9	.
32	O=C(Cn1nc(-c2ccc(Cl)cc2)c2ccccc2c1=O)Nc1cccc2ccccc12
  -0.3	.
33	CC1CCCC(C)N1C(=O)C1=COCCO1 (configuration not stated)
  1.1	.
34	CCOC(=O)C1CCN(CC(=O)Nc2ccc(SC(F)F)cc2)CC1
  0.3	.
35	CCN(C(=O)Cc1cccs1)c1ccccc1
  3.0	-0.581
36	CS(=O)(=O)Cc1ccc(C(=O)Nc2ccnn2C2CCCC2)cc1
  -5.5	.
37	CCn1c(-c2ccc(Cl)cc2)cs/c1=N\N=C/c1ccc(O)cc1
  1.8	0.011
38	CC(=O)NCc1ccc(C(=O)COC(=O)C(c2ccccc2)c2ccccc2)o1
  -0.8	.
39	Cc1ccc(CC(C#N)Sc2nnc(-c3cccs3)n2C2CC2)cc1 (configuration not stated)
  1.4	.
40	CCOc1ccccc1N1C(=O)C2C(c3ccccc3)C=CC(c3ccccc3)C2C1=O (configuration not stated)
  2.7	.
41	O=c1[nH][nH]c2cccc(F)c12
  0.6	0.878
42	Cn1cccc1/C=N/NC(=O)c1ccccn1
  1.1	-0.959
43	CCN(C(=O)CSc1nnc(-c2ccco2)n1N)c1cccc2ccccc12
  -0.4	.
44	N/C(CC(=O)Nc1ccc(N2CCOCC2)cc1)=N\O
  1.5	.
45	CCN(c1ccccc1)c1ncnc2c1cnn2-c1ccc(C)cc1
  0.6	0.771
46	Cc1ccc(C2N(C)c3ccccc3-c3nc4ccccc4n32)o1 (configuration not stated)
  1.1	0.034
47	O=C(c1ccc(I)cc1)N1CCN(c2ccc(O)cc2)CC1
  2.0	.
48	CC(=O)N1CCN(C(=S)c2ccc(-c3ccc(C)cc3)o2)CC1
  -3.8	.
49	CC(C)(C)C1CCC(C(=O)OCC(=O)Nc2ccc3[nH]c(=O)[nH]c3c2)CC1 (configuration not stated)
  0.7	.
50	O=C(NCc1ccc(Cl)cc1)c1cccnc1OCC(F)(F)F
  0.9	0.579

Sorted by the number under LANA-nucl inh (smallest number first): 3 of the compounds above
| No. | smiles | LANA-nucl inh |
| --- | --- | --- |
| 42 | Cn1cccc1/C=N/NC(=O)c1ccccn1 | -0.959 |
| 46 | Cc1ccc(C2N(C)c3ccccc3-c3nc4ccccc4n32)o1 (configuration not stated) | 0.034 |
| 45 | CCN(c1ccccc1)c1ncnc2c1cnn2-c1ccc(C)cc1 | 0.771 |

(cont.)
The line under a structure holds: Ab BasE inh	LANA-nucl inh
51	O=C(NCCSc1ncc(-c2ccccc2)[nH]1)c1ccco1
  -0.8	0.295
52	Cc1ccc(NC(=O)N2C(=O)C3(OCCO3)c3ccccc32)cc1
  2.0	.
53	CN(C)c1ccc(C=NCC2COc3ccccc3O2)cc1 (configuration not stated)
  0.3	.
54	COC(=O)c1c(C)[nH]c(C(=O)C(C)N(C)Cc2ccccc2OC)c1C (configuration not stated)
  -3.6	.
55	C=CCNC(=O)c1cc(-c2ccc(Cl)cc2Cl)oc1C
  -0.6	0.708
56	COc1ccc(-c2[nH]ncc2C)cc1F
  .	0.0725
57	CCC(NC(C)C)C(O)c1ccc(O)c(O)c1 (configuration not stated)
  -1.4	-0.566&-0.352
58	CCOC(=O)c1ccc(NC(=O)C(CC)Sc2nnc(C)n3c2cc2occc23)cc1 (configuration not stated)
  -1.0	1.5
59	O=C(COC(=O)c1ccco1)Nc1nc2ccccc2s1
  -3.6	0.334
60	O=C(N/N=C/c1ccsc1)c1c[nH]c2ccccc12
  -3.1	1.51
61	O=C(CN1C(=O)c2ccccc2C1=O)OCCCn1c(=O)[nH]c2ccccc21
  1.7	.
62	O=C(COC(=O)c1ccc(N2CCCC2=O)cc1)c1ccc2c(c1)OCCO2
  -1.2	.
63	CCCN(Cc1cccs1)C(=O)Nc1cccc(C)c1
  -1.2	-0.379
64	O=C(Nc1cnn(Cc2ccc(F)cc2)c1)c1cnccn1
  1.8	.
65	NC(=O)CCNC(=O)c1ccc(Cl)cc1
  -0.6	.
66	CCCCC(=O)Cc1ccco1
  -1.7	-0.411
67	CN(C)C(=O)Nc1ccc(C(C)(C)C)cc1
  -0.4	0.453
68	O=c1[nH]c2ccc(NCc3ccccc3C(F)(F)F)cc2[nH]1
  4.1	-0.613
69	CCOP(C)(=O)/C(C#N)=C(\O)c1cc(OC)c(OC)c(OC)c1 (configuration not stated)
  0.1	.
70	O=C(Cc1ccc(F)cc1)N/N=C/c1ccc(-c2ccc(Cl)c(C(=O)O)c2)o1
  1.8	-0.764

Complete entries, looked up by structure.
O=C(Nc1cnn(Cc2ccc(F)cc2)c1)c1cnccn1 reads Ab BasE inh = 1.8; LANA-nucl inh = .
CN(C)C(=O)Nc1ccc(C(C)(C)C)cc1 reads Ab BasE inh = -0.4; LANA-nucl inh = 0.453
CCOP(C)(=O)/C(C#N)=C(\O)c1cc(OC)c(OC)c(OC)c1 (configuration not stated) reads Ab BasE inh = 0.1; LANA-nucl inh = .

Following part.
The line under a structure holds: Ab BasE inh	LANA-nucl inh
71	CCC(=O)N=C1SC2CS(=O)(=O)CC2N1c1ccc(F)c(Cl)c1 (configuration not stated)
  -4.0	-1.12
72	CC1CC(=O)Nc2ccccc2N1C(=O)Cn1ncc(Cl)c(Cl)c1=O (configuration not stated)
  1.9	.
73	O=C(O)c1ccncc1Br
  4.5	-1.14
74	Cn1c(C(=O)O)c(S(=O)(=O)c2ccc(Cl)cc2)c2ccccc21
  0.2	2.23
75	NC(=O)NCCC1=CCCCC1
  1.8	.
76	Cc1ccc(C)c(SCC(=O)N(C)C)c1
  -0.2	.
77	N#CCc1ccc(OCc2cnc(Cl)s2)cc1
  .	-0.591
78	Cn1c(CC23CC4CC(CC(C4)C2)C3)nnc1SCC(N)=O
  -1.1	0.615
79	CC(C)CN(CC(C)C)C(=O)c1cc2ccccc2oc1=O
  0.6	.
80	Cn1nc(C(=O)NCCCN2CCOCC2)c2c1-c1ccccc1S(=O)(=O)C2
  -0.1	0.138
81	O=C(NC1CCCCC1)c1ccc(S(=O)(=O)N2CCCC2)cc1
  0.8	0.309
82	CC1CCCC(NCCN2CCOCC2)C1 (configuration not stated)
  2.7	-0.139
83	CC(=O)Nc1ccccc1-c1ccccc1
  0.2	-0.521
84	Cc1ccc(S(=O)(=O)NC2(C(F)(F)F)C(=O)N(Cc3ccco3)C3=C2C(=O)CC(C)(C)C3)cc1 (configuration not stated)
  0.9	-0.494
85	Cc1ccccc1NC(=S)N1CCCCC1
  -1.9	-0.14
86	Cc1cccc(NC(=O)C2C3C=CC4(O3)C2C(=O)N(Cc2cccnc2)C4C(=O)NC2CCCC(C)C2C)c1 (configuration not stated)
  1.1	-1.24
87	Cc1ccc(-n2c(NN)nc3ccccc3c2=O)c(C)c1
  0.3	.
88	O=C(CCNS(=O)(=O)c1ccccc1F)N1CCN(c2ccccc2Cl)CC1
  0.9	.
89	COc1cccc(NC(=O)CC(NC(C)=O)c2ccccc2)c1 (configuration not stated)
  -5.0	.
90	CCCNC(=O)c1ccc(-c2nc(CS(=O)(=O)c3ccccc3)c(C)o2)cc1
  -2.7	-0.855
91	CCOC(=O)c1cc(S(=O)(=O)C(C)C)c(SC)s1
  -0.8	0.278
92	CCc1nnc2sc(-c3ccc(Cl)cc3)nn12
  2.6	0.667
93	O=S(=O)(CCN1CCN(C(c2ccccc2)c2ccccc2)CC1)c1ccc(Cl)cc1
  2.0	.
94	CSc1nnc2c(n1)OC(c1ccccc1)N(C(C)=O)c1ccccc1-2 (configuration not stated)
  0.0	-0.875
95	CCN(Cc1ccccc1)Cc1csc(C)c1C
  -0.5	0.0825
96	COc1ccc(NC(=O)N(Cc2ccccc2)C(=O)CC#N)cc1
  -5.7	.
97	O=C(NCc1ccco1)C(c1cccs1)N(C(=O)C1COc2ccccc2O1)c1cccc(O)c1 (configuration not stated)
  -3.0	0.054
98	Fc1ccccc1OCCSc1nc2ccccc2s1
  2.7	.
99	CCCCNC(=O)Nc1ccc(S(=O)(=O)Nc2cccc(Cl)c2)cc1
  -0.2	.
100	CCNC(=O)NC1(C(=O)O)CC2CCC1(C)C2(C)CC (configuration not stated)
  1.4	.
101	CSC1=NC2(CCN(C(=O)NC3CCCCC3)CC2)N=C1c1ccccc1
  -3.6	.
102	O=C1CCCc2cc(S(=O)(=O)NCCC(=O)NC3CCCCC3)ccc2N1
  -0.1	.
103	CCCCN(CC)Cc1ccc(CNC(=S)Nc2cccc(F)c2)o1
  -0.2	0.307
104	COC(=O)C1=CN(c2cccc(C(F)(F)F)c2)C=C(C(=O)OC)C1c1ccc(F)cc1
  -0.6	.
105	O=C(c1ccc2c(c1)OCCO2)n1cccn1
  0.7	0.0275
106	CN(C)C(=O)NCCc1ccc(F)cc1
  2.6	0.316
107	CN(C)NC1CCS(=O)(=O)C1 (configuration not stated)
  -1.7	1.11
108	CCN1CCN(CC(=O)Nc2ccc(Cl)cn2)CC1
  -4.5	1.86
109	CSc1nc2c([nH]c3ccccc32)c(=O)n1C
  2.3	0.734
110	Cc1ccc(N=Cc2ccc(C)o2)cc1
  -2.5	0.766
111	Cc1ccc(NC(=O)COC(=O)c2c(C)nsc2N)cc1C
  0.0	.
112	COc1ccc(C(=O)NCc2n[nH]c(=O)c3ccccc23)c(OC)c1
  0.9	0.364
113	O=C(CCc1nc2ccccc2c(=O)[nH]1)N1CCN(c2ccccc2)CC1
  1.1	.
114	COc1cccc(C(N)=O)c1OC(=O)COc1ccc(Br)cc1
  2.6	.
115	N=C(N)SCC1CN=C(N2CCCC2)S1 (configuration not stated)
  0.8	.
116	Cc1ccccc1NC1=C(C(=O)c2ccccc2)N(C)S(=O)(=O)c2ccccc21
  -1.0	.
117	Cc1ccc(Cn2nc(C)c(C(=O)N=c3sccn3C)c2Cl)cc1
  -3.1	.
118	O=C1Nc2ccccc2C1=Nc1ccc(Br)cc1
  -0.3	0.571
119	Cc1ccc2c(c1)c1c3n2CCCNC3CCC1 (configuration not stated)
  -2.5	0.749
120	O=C(CN1CCNC(=O)C1)NCCc1ccc(F)cc1
  1.0	.

A portion of the library; count on the stated rates, not on these rows.
